CBX7 AlphaScr: CBX7 chromodomain binding inhibitors, primary screen, biochemical, AlphaScreen; Chromobox protein homolog 7 (Homo sapiens), O95931; AlphaScreen His6-CBX7 / biotin-H3K27me3 peptide binding; hits give low values; normalised signal (fraction of DMSO) (no concentration beside the values); actives 1.1% (n = 66,000); AID 1224903, 2016; in the data active = normalised signal below about 0.5;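 also: 100 nL library stock added to about 20 µL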
Target sequence (O95931 whole entry, looked up): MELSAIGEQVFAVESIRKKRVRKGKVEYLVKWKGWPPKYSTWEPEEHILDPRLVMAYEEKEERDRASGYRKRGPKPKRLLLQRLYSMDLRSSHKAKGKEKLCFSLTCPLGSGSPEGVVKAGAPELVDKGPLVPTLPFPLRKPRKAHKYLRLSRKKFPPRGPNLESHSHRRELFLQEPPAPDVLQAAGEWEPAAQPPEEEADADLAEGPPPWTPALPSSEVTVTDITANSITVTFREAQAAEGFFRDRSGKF
CBX7 AlphaScr z-score: second read-out of CBX7 AlphaScr, no call of its own (marks repeat the call); z-score; measured here: z-score of CBX7 signal; some inactives read as strong as hits; reference of the scale not given here;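 same signal on another scale; lower means less binding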
The depositor's hits bear a star; & = joins results of further samples.

compound,CBX7 AlphaScr,CBX7 AlphaScr z-score
COCCNC(=O)Nc1ccc2c(c1)N(C)C(=O)CS2,1,1.3
Cc1ccc(Cn2nnc3c(=O)n(Cc4ccc(F)cc4)cnc32)cc1,0.91,-1.5
COc1cccc(/C=C/c2nc3ccccc3c(=O)n2-c2ccc(C)c(F)c2)c1OC,1,1.6
COc1ccc(OC)c(CN2C(=O)CCC2(C)C(=O)NC2CCCCC2)c1 (centres undefined),1.2,2.8
O=C(NC1CCCC1)C1CCN(c2nnc(-n3cccc3)s2)CC1,0.71,-1.1
CC(C)NC(=O)c1cc(-c2ccc(Br)cc2)on1,1,-0.0061
Cc1ccc(CNC(=O)CS(=O)(=O)Cc2nc(-c3ccccc3F)oc2C)cc1,0.94,-1.5
O=C(CSc1nnc(-c2cccnc2)o1)NCc1ccc(F)cc1,1,0.12
O=C(Cn1nc(-c2ccc(Cl)cc2)c2ccccc2c1=O)NCCN1CCOCC1,0.98,-0.55
O=C(O)c1c[nH]c2ccc(S(=O)(=O)NCc3ccc4c(c3)OCO4)cc2c1=O,0.48*,-7*
COc1ccccc1-c1cc(C(=O)Nc2cccc(Cl)c2)no1,1.1,2.3
COc1ccc(-c2cc3ccccc3n2CC(O)CN2CCC(C)CC2)cc1 (centres undefined),0.68,-6.1
CC(C)(c1ccccc1)c1ccc(OCC(O)CN2CCCCC2)cc1 (centres undefined),0.94,-1.7
Cc1ccc(-c2cc(C(=O)NCCN3CCCCC3C)c3ccccc3n2)cc1C (centres undefined),1.1,1.7
Cc1ccc2cc(C)c(NCCCN3CCOCC3)nc2c1,0.93,-0.71
O=C(Nc1cccc(Cl)c1)c1cc2n(n1)C(C(F)(F)F)CC(c1ccccc1)N2 (centres undefined),0.99,-0.17
O=C(c1cc(-c2ccc(Br)cc2)on1)N1CCCCC1,1.1,1.9
CC(=O)N[C@H]1[C@H](Oc2cccc3ccccc23)O[C@H](CO)[C@@H](O)[C@@H]1O,1,-0.016
COc1ccc(O)c(-c2nc3ccccc3nc2-c2ccccc2)c1,0.61,-5.5
COCCCNC(=O)CCc1c(C)nc2cc(-c3ccccc3)nn2c1C,1.1,2.8
CCOCCCNC(=O)CCc1nc(-c2ccc(C)cc2)no1,1,1.5
COCCNC(=O)C1c2cc(OC)c(OC)cc2C(=O)N(C)C1c1ccccc1F (centres undefined),1,0.11
O=C(NCc1ccc(F)cc1)c1cccc(NC2=NC3CS(=O)(=O)CC3S2)c1 (centres undefined),0.98,-0.58
CCOC(=O)C1CCCN(c2c(NCCN(CC)c3ccccc3)c(=O)c2=O)C1 (centres undefined),0.98,-0.35
Cc1ccc(CCNC(=O)CN2C(=O)CCSc3ccccc32)cc1,0.99,-0.26
COc1ccc(NC(=O)C2(S(=O)(=O)c3ccc(C)cc3)CC2)cc1,1,0.43
COc1ccc(NC(=O)C2CCCN2S(=O)(=O)c2cccc3cccnc23)cc1Cl (centres undefined),1,-0.03
CC(C)c1ccc(OCC(=O)Nc2c(C(=O)c3ccc(Cl)cc3)oc3ccccc23)cc1,1.1,0.46
Cc1nc2c(C(=O)NC3CCCC3)c[nH]n2c(=O)c1Cc1ccc(Cl)cc1,1.1,1.2
CCc1ccc(NC(=O)[C@H](C(C)CC)N2Cc3ccccc3C2=O)cc1 (some centres undefined),1,0.0085
COc1cc2ccccc2cc1C(=O)NC(C)Cc1ccccc1 (centres undefined),0.74,-7.1
CCCNC(=O)c1ccc2c(c1)N=C(CCC)c1ccccc1S2,0.79,-3.7
COC(=O)CC1C(=O)NCCN1C(=O)Nc1cccc(Cl)c1 (centres undefined),1,0.67
COc1ccc(C(=O)Nc2cc(-c3nc4ccccc4o3)ccc2OC)cc1Cl,0.99,-0.13
CC1CCCN(S(=O)(=O)c2ccc3[nH]c(=O)cc(C(=O)NCc4ccc5c(c4)OCO5)c3c2)C1 (centres undefined),1.1,1.5
COc1ccc(-c2nnc(SCc3c(Cl)cccc3Cl)o2)cc1,1.1,1.3
Cc1ccccc1NC(=O)CCc1nc(-c2ccccc2F)no1,1.3,4
COc1ccc(CCNS(=O)(=O)c2ccc3c(c2)CC(C)N3C(C)=O)cc1OC (centres undefined),1,2.3
CN(C)CCNc1nc(-c2ccc(C(C)(C)C)cc2)nc2ccccc12,1.3,3.4
COC(=O)CNc1nc(-c2ccncc2)nc2ccccc12,1.2,3.9
Cc1cc(Nc2cccc(Cl)c2)n2c(nc3ccccc32)c1C#N,1,-0.033
CNC1(c2nnnn2-c2cccc(Cl)c2)CCCC1,1.1,1.2
CC(NC(=O)CN1C(=O)COc2ccc(S(=O)(=O)N3CCCC3)cc21)c1ccccc1 (centres undefined),0.97,-0.9
Cc1ccc(CNC(=O)c2ccc3c(c2)N(Cc2c(F)cccc2Cl)C(=O)CS3)cc1,1,0.074
CC1CCN(CCCNC(=O)c2ccc(NC3=NC4CS(=O)(=O)CC4S3)cc2)CC1 (centres undefined),1,0.62
O=C(Nc1cccnc1Cl)c1cc(-c2ccc(Cl)cc2)on1,1,1.5
Cc1ccc(CNc2cc(C)nc3ncnn23)cc1,1,0.56
CC1=Nc2cc(C(=O)N3CCCCC3)ccc2Sc2ccc(Cl)cc21,0.95,-2.5
Cc1cc(C(=O)Nc2c(C)nn(Cc3ccc(Cl)c(Cl)c3)c2C)no1,1,0.56
Cc1ccc(NC(=O)Cn2cc(S(=O)(=O)c3ccccc3)c(=O)c3ccccc32)cc1Cl,0.99,-0.42

The list goes on:
Each structure is followed by: CBX7 AlphaScr | CBX7 AlphaScr z-score
CC1(C)CC(=O)c2cc(C(=O)Nc3ccc(F)cc3)c(=O)n(-c3ccc(Cl)cc3)c2C1
    0.69 | -1.1
COc1ccc(C(=O)Nc2c3c(nn2-c2cccc(Cl)c2)CS(=O)(=O)C3)cc1OC
    0.88 | -0.78
CN1CCN(CCCNC(=O)c2ccc3c(c2)NC(=O)CS3)CC1
    1.1 | 1.5
O=C(NCc1ccc(Cl)cc1)c1cnc2sccn2c1=O
    0.97 | -0.61
COc1ccc(-c2nc3cc(C)ccn3c2NC(=O)CC(C)(C)C)cc1
    0.99 | -0.22
CCc1ccc(NC(=O)c2cc(-c3ccc(Cl)c(Cl)c3)on2)cc1
    1.2 | 1.6
Oc1ccc(-c2nc(-c3ccccc3)c(-c3ccc(F)cc3)[nH]2)cc1O
    0.78 | -4.4
Cc1ccc(NC(=O)CC2OCC3CCCCN3C2=O)cc1 (centres undefined)
    1.3 | 2.1
CCC1Oc2ccc(C)cc2N(CC(=O)NCc2cc(Br)ccc2OC)C1=O (centres undefined)
    1 | 1.9
CC(C)CCNC(=O)CN1CCN(Cc2ccc(F)cc2)C1=O
    1 | 0.17
CCOc1ccccc1Nc1nc2ccccc2nc1NS(=O)(=O)c1ccccc1
    0.97 | -0.82
O=C(CNc1ccccc1-c1nc2ccccc2[nH]c1=O)NCc1ccccc1Cl
    1.1 | 1.6
Nc1c(C(=O)Nc2cccc3ccccc23)nnn1Cc1ccccc1
    0.97 | -0.31
Cc1ccc2nc(SCc3ccccc3F)[nH]c2c1
    1 | 1.6
CCCc1cc(C(=O)Nc2ccc(Br)cc2)no1
    1.1 | 2.6
COc1ccc(NS(=O)(=O)c2ccc3c(c2)CCC(=O)N3)cc1OC
    0.96 | -0.58
COc1ccc(NC(=O)CSc2nccn2-c2ccc(F)cc2)c(OC)c1
    0.69 | -0.42
Clc1ccc(-c2nc(-c3ccncc3)no2)c(Cl)c1
    1.1 | 2.7
CCOC(=O)c1c(NC(=O)COc2cccc(Cl)c2)sc2c1CCCC2
    1.3 | 0.73
CCCCn1c(CCNC(=O)c2ccccc2OC)nc2ccccc21
    0.97 | -0.43

Looked up above.
Under CBX7 AlphaScr z-score, COc1ccc(NS(=O)(=O)c2ccc3c(c2)CCC(=O)N3)cc1OC is entered as -0.58
Under CBX7 AlphaScr, Cc1ccc(NC(=O)CC2OCC3CCCCN3C2=O)cc1 (centres undefined) is entered as 1.3
Under CBX7 AlphaScr z-score, CCOC(=O)c1c(NC(=O)COc2cccc(Cl)c2)sc2c1CCCC2 is entered as 0.73
Under CBX7 AlphaScr, CCc1ccc(NC(=O)c2cc(-c3ccc(Cl)c(Cl)c3)on2)cc1 is entered as 1.2

Remaining list, next part:
Each structure is followed by: CBX7 AlphaScr | CBX7 AlphaScr z-score
Cc1ccc(-c2noc(-c3cccc(Cl)c3)n2)cc1
    1.2 | 4.9
CCOc1ccc(NC(=O)C2CCCN(c3nnc(-n4cccc4)s3)C2)cc1 (centres undefined)
    1 | 1.4
CCCn1c(CN2CCOCC2)nc2c1c(=O)[nH]c(=O)n2C
    1 | 0.5
CCN(CC)c1ccc(NC(=O)CCc2c(C)nc3c(c(C)nn3-c3ccccc3)c2C)c(C)c1
    0.61 | -2.9
O=C(NCCc1ccccc1)c1nn2c(C(F)(F)F)cc(-c3ccc(Br)o3)nc2c1Br
    0.84 | -2.5
COCCNc1ncnc2ccccc12
    1 | -0.12
COc1ccc2c(c1)c(=O)c(S(=O)(=O)c1ccc(C)cc1)cn2Cc1cccc(F)c1
    0.92 | -3.1
Fc1ccc(Nc2nc(C(F)(F)F)c(-c3cccc(Cl)c3)s2)cc1
    1.3&1.2 | 7.9&3.9
COc1ccc(-n2nc(C(=O)NCC(=O)Nc3ccc(F)cc3)c3ccccc3c2=O)c(OC)c1
    1 | 0.39
Cn1c(CNc2ccc(O)cc2)nc2ccccc21
    1 | 0.37
Cc1ccc(-c2cc(C(=O)NCc3cnn(C)c3C)c3ccccc3n2)cc1C
    1 | 0.62
CCN(CCCNC(=O)Cc1c(C(=O)O)[nH]c2ccccc12)c1ccccc1
    0.94 | -1.2
CC(NC(=O)C1CCCN(S(=O)(=O)c2cccc3cccnc23)C1)c1ccccc1 (centres undefined)
    0.94 | -0.94
COc1cccc(CN2C(=O)CN(C3CCCCC3)C(=O)C2c2ccc(N(C)C)cc2)c1 (centres undefined)
    0.76 | -0.5
O=C(CSc1nc(-c2ccc(Cl)cc2)[nH]c1-c1ccccc1)NCC1CCCO1 (centres undefined)
    0.97 | -0.85
COc1ccc(OC)c(CCNc2ccc3nnc(-c4ccccc4)n3n2)c1
    0.94 | -1.3
Cc1nnc(CSc2nnc3n(N)cnn23)o1
    0.7 | -8.3
CCOc1ccc(S(=O)(=O)Nc2cccc(-c3cn4ccccc4n3)c2)cc1
    0.85&1 | -1&0.4
CCCCN(CCCC)S(=O)(=O)c1ccc2oc(C(=O)NCc3cccnc3)c(C)c2c1
    0.92 | -1.9
O=C(Nc1ncc(-c2ccccc2)s1)c1ccc(S(=O)(=O)N2CCCCC2)cc1
    1.1 | 0.078
Cc1ccc(Nc2nc(-c3cc4cc(Br)ccc4oc3=O)cs2)cc1
    1.1 | 1.3
CCCC(=O)Nc1nnc(COc2ccc(C(C)(C)C)cc2)s1
    0.9 | -2.5
Cc1ccc2cc(CCNC(=O)C(C)(C)C)c(=O)[nH]c2c1C
    1.1 | 1.8
CNc1oc(-c2ccc(C)cc2)nc1S(=O)(=O)c1ccc(Cl)cc1
    1.1 | 0.1
CCOCCn1cnc2sc(C(=O)Nc3ccc(OCC)cc3)c(C)c2c1=O
    1 | 0.096
COc1ccc(N(CC(=O)N2CCn3c2nc2ccccc23)S(=O)(=O)c2cccnc2)cc1
    0.94 | -0.99
Cn1nc(-c2ccccc2F)c2cc(C(=O)NCCc3ccc(Cl)cc3)sc21
    0.87 | -2.1
CCOCc1cnc(C)nc1NCC(=O)c1c(C)n(C)c2ccc(OC)cc12
    1.1 | 0.16
COc1cccc(NC(=O)CSc2nccn2-c2cc(C)cc(C)c2)c1
    1.1 | 1.1
COc1ccccc1CNc1ccc2c(c1)nc(C)n2C
    1 | 0.75
O=C(Nc1nc2c(s1)CCc1ccccc1-2)c1ccc(S(=O)(=O)N2CCCCC2)cc1
    1 | 0.78
Cc1ccc(-n2cc(-c3ccccc3)c3c(NCc4ccccn4)ncnc32)cc1
    0.67 | -8.4
O=C(NCc1ccc(Cl)cc1)C1CCN(S(=O)(=O)c2ccc(F)cc2)CC1
    1.1 | 3.9
COc1ccccc1NC(=O)c1c(O)c2ccccc2[nH]c1=O
    1.1 | 1.4
COc1ccc(Nc2c3c(nc4ccc(Cl)cc24)CCC3)cc1Cl
    1 | 0.018
COc1ccc(-c2c(C)nn3c(N4CCC(C(=O)N5CCN(C)CC5)CC4)cc(C)nc23)cc1OC
    1 | 0.66
CCOc1ccccc1Nc1nc(-c2cccs2)cs1
    0.87 | -1.7
CCC(=O)N1CCc2cc(S(=O)(=O)NC3CCCc4ccccc43)ccc21 (centres undefined)
    0.92 | -1.8
CCOc1ccc(C2CC(=O)Nc3cc(OC)c(OC)cc32)cc1OC (centres undefined)
    0.81 | -0.75
CCCCn1c(CCNC(=O)c2cccs2)nc2ccccc21
    0.95 | -0.96
COc1cccc(C2=NOC(C(=O)Nc3cccnc3Cl)C2)c1 (centres undefined)
    0.99 | -0.12
Cc1ccc(S(=O)(=O)c2nc(-c3cccc(Cl)c3)oc2N2CCCCC2)cc1
    0.66 | -3.3
Cc1ccc(C(O)=C2C(=O)C(=O)N(CCCn3ccnc3)C2c2ccc(F)cc2)cc1 (centres undefined)
    0.95 | -1.4

2 entries from above, as labelled records.
COc1ccc(NC(=O)CSc2nccn2-c2ccc(F)cc2)c(OC)c1
  CBX7 AlphaScr = 0.69; CBX7 AlphaScr z-score = -0.42

Clc1ccc(-c2nc(-c3ccncc3)no2)c(Cl)c1
  CBX7 AlphaScr = 1.1; CBX7 AlphaScr z-score = 2.7

In the list so far, 3 contain a CF3 group.
Each structure is followed by: CBX7 AlphaScr | CBX7 AlphaScr z-score
O=C(Nc1cccc(Cl)c1)c1cc2n(n1)C(C(F)(F)F)CC(c1ccccc1)N2 (centres undefined)
    0.99 | -0.17
O=C(NCCc1ccccc1)c1nn2c(C(F)(F)F)cc(-c3ccc(Br)o3)nc2c1Br
    0.84 | -2.5
Fc1ccc(Nc2nc(C(F)(F)F)c(-c3cccc(Cl)c3)s2)cc1
    1.3&1.2 | 7.9&3.9

From PubChem BioAssay

An excerpt (hit frequency here may not be typical).
